High-throughput results: PubChem, ICCB-Longwood Screening Facility, Harvard Medical School
HCMV NEC inh = cytomegalovirus nuclear egress complex inhibition; HTRF UL50-UL53 interaction, normalized percent inhibition; 190,000 compounds, 0.15% hits; AID 1918969; inhibition, % (no concentration beside the values);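 active = both replicates at 50% or more, plus weaker picks with an unusually low signal ratio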;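 note: stock transfer was 100 nL into about 20 µL; 0% = negative control wells and 100% = wells with untagged competitor protein; inactives centre near -12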
GIV Gai3 FP = inhibitors of GIV GBA-motif binding to rat Galpha-i3. percent of control (FP), % (test concentration not listed). 210,000 compounds, 0.42% hits. Galpha-i3/FITC-GIV peptide fluorescence polarization, 90 min; stronger effect = lower value; scaled: aluminum fluoride 0%, vehicle 100%. AID 1224905;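 active = replicate mean at 85% of control or lower, very high polarization wells dropped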;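 note: wells of about 15 µL received 100 nL stock; the first replicate is given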
Target sequence (P08753 whole entry, looked up): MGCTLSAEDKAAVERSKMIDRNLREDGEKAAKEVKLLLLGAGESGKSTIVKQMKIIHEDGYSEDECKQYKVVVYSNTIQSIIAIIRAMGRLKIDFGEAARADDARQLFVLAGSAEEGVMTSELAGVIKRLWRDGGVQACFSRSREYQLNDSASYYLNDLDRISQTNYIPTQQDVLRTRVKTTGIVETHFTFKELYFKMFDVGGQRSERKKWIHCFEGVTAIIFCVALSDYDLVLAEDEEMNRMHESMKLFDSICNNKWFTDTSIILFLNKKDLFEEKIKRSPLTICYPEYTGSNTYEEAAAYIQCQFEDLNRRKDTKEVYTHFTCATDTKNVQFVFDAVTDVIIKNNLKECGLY
Sa growth inh = S. aureus growth inhibition; relative growth, % (concentration not given with the values); 170,000 compounds, 0.53% hits; AID 720641; S. aureus RN4220 growth, OD600, 20 h, 42 °C; stronger effect = lower value;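 active = growth at 42 °C up to 50% and 20 or more points under that at 30 °C, or under 10% at both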;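 note: 300 nL library stock went into each well; scaled to the means of positive and negative controls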
Sa growth inh second temp = further read-out of Sa growth inh, marked with its call; relative growth, %; measured here: growth at 30 °C;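 optical density after 20 h as mean of two plates; 100% = untreated growth and lower means inhibition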
The depositor's hits bear a star; · = no result given; & = joins results of further samples.

no.	molecule	HCMV NEC inh	GIV Gai3 FP	Sa growth inh	Sa growth inh second temp
1	CC(=O)NCc1ccc(C(=O)CSc2nnc(-c3cccs3)n2C2CC2)s1	-63	·	75	90
2	Cc1nc2ccccc2nc1C(=O)NCCN1CCN(c2ccccc2)CC1	-52	107	88	100
3	CCCCC#Cc1nc(NC)c2ncn([C@@H]3O[C@H](CO)C(O)[C@@H]3O)c2n1 (stereo partly drawn)	-36	109	·	·
4	O=C1CSC(=S)N1Cc1ccccc1	-3	107	79	63
5	Cc1onc(-c2c(Cl)cccc2Cl)c1C(=O)N=S1CCC2(C1)OCCO2 (stereo not drawn)	-3	100	80	79
6	CCOC(=O)C1=C(C)NC(=O)NC1c1cn(-c2ccccc2)nc1C (stereo not drawn)	6	·	110	99
7	COc1ccc(CCNC(=O)CN2C(=O)CCCc3ccccc32)cc1OC	-1	110	·	·
8	CCOc1ccc(C(=O)Nc2cccc(NC(=O)c3ccc(Cl)cc3Cl)c2)cc1	-22	106	112	84
9	O=C1NC2CC3CC(C2)CC1C3	-6	107	97	91
10	Cc1ccccc1C(=O)Nc1cc2c(s1)CCCC2	-2	·	122	83
11	CCOc1ccc(NC(=O)C2CCCN2S(=O)(=O)c2ccc(OCC)cc2)cc1 (stereo not drawn)	-16	95	·	·
12	CCCN(CCC)S(=O)(=O)c1ccc(C(=O)Nc2ccc3sc(SC)nc3c2)cc1	·	99	103	67
13	COC(=O)c1c(NC(=O)CSc2ncnc3sc(C)c(C)c23)sc2c1CCCC2	4	104	·	·
14	Cc1ccc(CCNS(=O)(=O)c2ccc3c(c2)C(C(C)C)C(=O)N3)cc1 (stereo not drawn)	·	105	121	96
15	Cc1ccc(N2C(=O)c3ccccc3NC2c2ccc(C)o2)cc1 (stereo not drawn)	-10	·	101	89
16	COc1ccc(N(/N=C2\Oc3ccc4c(C)cc(=O)oc4c3C2=O)C(C)=O)cc1	-7	·	105	85
17	c1ccc(C2=Nn3cnnc3SC2)cc1	-17	113	·	·
18	CC1C(c2ccccc2)O/C(=N\S(=O)(=O)c2ccc(Cl)cc2)N1C (stereo not drawn)	-16	101	102	86
19	CCOC(OCC)P(=O)(C(C)C)C(C)C	-5	98	109	103
20	O=C(COc1ccc(Cl)cc1Cl)N=P(C1CCCCC1)(N1CCOCC1)N1CCOCC1	-29	·	100	92
21	COC(=O)C1CCN(C(=O)CN(C)Cc2ccc(C(C)(C)C)cc2)CC1	-12	·	90	81
22	O=C(Oc1ccc(Cl)cc1Cl)c1ccc(Br)o1	-22	·	142	85
23	O=C1CSc2nnc(C3COc4ccccc4O3)n2N1 (stereo not drawn)	·	100	95	86
24	Cc1nnn(C23CC4CC(CC(C(=O)NC5CCCCCC5)(C4)C2)C3)n1	·	97	63	87
25	O=C(C1CC1)N1CCc2cc3ccccc3nc21	-5	105	·	·
26	COc1cccc(CNc2cccc3cccnc23)c1O	-8	106	117	82
27	CC(=O)OC12CC3CC(C1)C(=O)C(C3)C2	-17	103	94	89
28	Cc1nn(-c2ccccc2)c(C)c1CCc1nn2c(-c3ccc(F)cc3)nnc2s1	-12	102	·	·
29	Cn1cccc1/C=N/NC(=O)CSc1nnc(-c2ccccc2)n1-c1ccccc1	-27	104	94	78
30	Cc1cccc(N2C(=O)CCSC23C(=O)N(Cc2ccc(F)cc2)c2ccccc23)c1 (stereo not drawn)	·	114	126	73
31	N#Cc1c(-c2ccccc2)cc[nH]c1=O	-44	93	·	·
32	Nc1ncc(S(=O)(=O)N2CCCCC2)cn1	-11	100	·	·
33	Cc1ccccc1Nc1nccc(N(C)C)c1C#N	-25	101	·	·
34	Cc1ccccc1CN1C(=O)c2ccccc2S(=O)(=O)c2ccc(C(=O)OCC3CCCO3)cc21 (stereo not drawn)	·	103	100	101
35	Clc1ccc(-n2ncc3c(Cl)ncnc32)cc1	-23	103	89	84
36	Cc1ccccc1NC(=O)Cn1cc(C(=O)c2ccccc2)c(=O)c2ccccc21	3	92	·	·
37	CC1(C)Cc2cccc(OCC(N)=O)c2O1	4	104	·	·
38	CCOC(=O)CN1CCC(c2cc(-c3ccc(Cl)cc3)n[nH]2)CC1	-9	96	·	·
39	Cc1ccc(NC(=O)N2CCC(c3nc(-c4ccccc4)no3)CC2)cc1C	-39	100	·	·
40	N#Cc1ccc(COc2nncc(Cl)c2Cl)cc1	-30	·	100	73
41	O=C(NCCCN1CCCC1)c1cc(-c2ccncc2)nc2ccccc12	·	102	102	85
42	CN(C)c1ccc(/C=C/C(O)=C2/C(=O)NC3(C)CC2c2ccccc2O3)cc1 (stereo not drawn)	-7	292	103	87
43	Cc1cc(C)n(CC(O)CN2c3ccccc3Sc3ccccc32)n1 (stereo not drawn)	·	102	76	29
44	COC(=O)c1nnn(CC(=O)NC(=O)Nc2cccc(C)c2C)c1C(=O)OC	-13	100	103	86
45	CSc1ccc(CNC(=O)Cn2c(-c3cccs3)cc3cc(F)ccc32)cc1	·	105	116	102
46	CC(C)(CC(=O)O)CC(=O)N1CCCN(c2nc3ccc(Cl)cc3s2)CC1	-10	113	102	81
47	COC(=O)c1ccc(OC)c(Br)c1	-10	·	90	77
48	COc1ccccc1-c1noc(-c2ccncc2)n1	-18	105	·	·
49	CN(C)C(=O)c1ccccc1-c1ccccc1C(=O)O	-5	100	114	104
50	CCN1C=NS(=O)(=O)c2ccc(C)cc21	-30	102	89	90
51	Cc1ccccc1CNC(=O)c1ccc2nc(SCc3ccc(F)cc3)n(C)c2c1	3	103	106	99
52	CC(=O)c1cccc(NC(=O)c2oc3c(c2C)-c2nn(Cc4ccc(Cl)cc4)cc2CC3)c1	-3	97	78	84
53	CCOC(=O)c1c(C)oc2nc(C)nc(NCCCN3CCN(c4cc(Cl)ccc4C)CC3)c12	·	105	96	94
54	Nc1nc2ccccc2n1Cc1ccccc1	3	104	70	84
55	N#Cc1c(C(F)(F)F)cc(=O)[nH]c1SCc1nc(-c2ccc(F)cc2)no1	-36	·	81	72
56	Cc1cc(N)n(-c2ccccc2Cl)n1	-12	100	·	·
57	O=C(COC(=O)c1ccc(S(=O)(=O)NCc2ccco2)cc1)NCc1ccco1	2	·	89	87
58	COC(=O)c1sc(N)c(C(=O)OC)c1COc1ccccc1C#N	-15	·	90	77
59	CCCOc1ccc(C2C3=C(CCCC3=O)OC3=C2C(=O)CCC3)cc1OCC	·	102	114	86
60	CCN(Cc1ccccc1)Cc1cccnc1	6	101	108	105

Structural class, the compounds so far with an NH in an aromatic ring.
no.	molecule	HCMV NEC inh	GIV Gai3 FP	Sa growth inh	Sa growth inh second temp
31	N#Cc1c(-c2ccccc2)cc[nH]c1=O	-44	93	·	·
38	CCOC(=O)CN1CCC(c2cc(-c3ccc(Cl)cc3)n[nH]2)CC1	-9	96	·	·
55	N#Cc1c(C(F)(F)F)cc(=O)[nH]c1SCc1nc(-c2ccc(F)cc2)no1	-36	·	81	72

(more compounds)
no.	molecule	HCMV NEC inh	GIV Gai3 FP	Sa growth inh	Sa growth inh second temp
61	CCCCc1ccc(-c2ccc(C#N)cc2)nc1	0	100	80	59
62	O=C(CCc1nnc2c3cc(-c4ccc(F)cc4)nn3ccn12)N1CCCC1	-20	104	·	·
63	Cc1ccc(-n2nc3c(=O)n(C(C)C(=O)NCc4ccco4)nc(C)c3c2C)cc1 (stereo not drawn)	·	106	99	86
64	CN(C(=O)CSc1nnc(Cc2ccccc2)o1)C1CCCc2ccccc21 (stereo not drawn)	-33	·	104	83
65	COc1ccc2c(C)nc(NC3=NCC(=O)N3)nc2c1	0	135	55	0
66	CCc1ccc2ncc(C(=O)c3ccccc3)c(N3CCOCC3)c2c1	-12	101&93	79	60
67	COc1cc(OC)cc(-c2cc3nc(C)c(CCC(=O)NCCc4cccc(C)c4)c(C)n3n2)c1	-20	105	107	87
68	Cn1nc(-c2ccc(CO)s2)cc1C(F)(F)F	-16	105	90	91
69	O=C(N=S1CCC2(C1)OCCO2)c1cc(C(F)(F)F)cc(C(F)(F)F)c1 (stereo not drawn)	-8	104	119	78
70	CCc1nnc2n1N=C(c1ccc(F)cc1)CS2	-26	109	·	·
71	CCOC(=O)c1oc2ccc(OCC)cc2c1C	-9	·	98	89
72	CN(C)N1C(=O)CC(N2CCCC2)C1=O (stereo not drawn)	-22	99	102	83
73	CCOC(=O)c1c(C)n(-c2ccc(I)cc2)c2ccc(O)cc12	12	109	·	·
74	O=C1c2ccccc2C(Nc2ccccc2)N1Cc1ccc2c(c1)OCO2 (stereo not drawn)	-1	105	82	92
75	CCOC(=O)c1ccccc1NC(=O)CSc1ncc(CO)n1Cc1ccccc1	-4	102	·	·
76	COc1ccc(-c2cc(=O)c3c(O)c(OC)c(OC)cc3o2)cc1O	-31	107	·	·
77	Cc1oc(-c2ccccc2F)nc1CN1CCC(C(=O)NCCc2ccc(Cl)cc2)CC1	-20	109	102	51
78	CCOc1ccc2nc(NC(=O)C3(S(=O)(=O)c4ccc(C)cc4)CC3)sc2c1	·	101	142	99
79	CC1=Nc2ccccc2N=C(NC(=O)CSc2nc3ccccc3s2)C1c1ccccc1 (stereo not drawn)	-16	102	·	·
80	CC1(C)CC(=O)c2sc(NC(=O)c3ccc(S(C)(=O)=O)cc3)nc2C1	-59	102	71	75
81	Cc1cccc(NC(=O)C2CCN(c3cnccn3)CC2)c1	-17	98	98	92
82	COc1ccccc1N1CCN(C(=O)CCCCCn2c(=S)[nH]c3cc4c(cc3c2=O)OCO4)CC1	-13	107	99	89
83	CCN(CC)S(=O)(=O)c1ccc2[nH]cc(C(=O)N3CCC(C)CC3)c(=O)c2c1	·	104	105	85
84	NC(=O)NCC(=O)NCC1COc2ccccc2O1 (stereo not drawn)	-2	·	90	92
85	Cc1onc(-c2ccccc2Cl)c1C(=O)Oc1ccc(Cl)cc1Cl	·	106	108	84
86	CN(c1ccc(F)cc1)S(=O)(=O)c1ccc(Cl)c(C(=O)NCc2ccco2)c1	-8	·	93	91
87	Cc1nn(-c2ccccc2)c2c1N(CC(=O)N1CCN(c3cccc(Cl)c3)CC1)C(=O)CS2	·	102	86	96
88	COc1cc2cc(Oc3ccc4ccc(=O)oc4c3)c(=O)oc2cc1OC(C)=O	-26	·	90	87
89	O=c1ccc(=O)n(CN2CCC(Cc3ccccc3)CC2)[nH]1	·	101	98	83
90	CCOC(=O)c1ccccc1NC(=O)N1CCc2c(sc3c2CCCC3)C1c1ccccc1 (stereo not drawn)	-2	98	·	·
91	O=c1c2cn[nH]c2nc2ccccn12	-52	110	94	95
92	COc1ccc2cnn(-c3ccccc3)c(=O)c2c1OC	-10&-13	101	96	96
93	O=C(Cn1c(=O)c2cccn2c2ccccc21)NCCc1ccccc1	-9	95	107	90
94	Oc1ccc2ccccc2c1C=NCc1cn2ccccc2n1	-34	·	97	88
95	O=C(Oc1ccc2cc(Br)ccc2c1)c1cccnc1Cl	-37	·	92	88
96	Cc1ccc(N2CC(c3nc(-c4ccc(N5CCCC5)cc4)no3)CC2=O)cc1C (stereo not drawn)	-9	102	·	·
97	O=C(/C=C/c1ccc(Br)o1)OCC(=O)c1ccccc1	-31	·	87	91
98	CCOc1cc2[nH]c(=O)n(Cc3cccc(OC)c3)c(=O)c2cc1OCC	·	103	95	84
99	COc1cnc(NS(=O)(=O)c2ccc(N)cc2)nc1	-26&16&-18	·	79	69
100	CCOC(=O)c1nc2nc(C)cc(=O)n2[nH]1	-2	101	·	·
101	CCn1cc(C2=NCC(C)O2)c2ccccc21 (stereo not drawn)	8	107	85	86
102	Cc1ccccc1C(=O)Nc1sc2c(c1C(=O)O)CCC(C(C)(C)C)C2 (stereo not drawn)	-41	102	117	70
103	CCOC(=O)c1cccc(NC(=O)C2CCCN(c3ncnc4onc(C)c34)C2)c1 (stereo not drawn)	-31&3	108&102	101	86
104	O=C(Nc1nncs1)c1ccccc1	-10	·	104	86
105	COc1cccc(-n2c(-c3cccc(F)c3)nc3c(cnn3-c3ccc(C)cc3)c2=O)c1	-12	100	96	90
106	CCc1ccc(S(=O)(=O)N2CC(=O)Nc3ccccc32)cc1	·	101	94	88
107	O=C(Nc1ccc2oc(-c3ccc(F)cc3Cl)nc2c1)c1cc([N+](=O)[O-])cc([N+](=O)[O-])c1	-22	100	·	·
108	COc1cc2c(cc1OC)C(C)N(C(=O)c1cc(S(=O)(=O)N3CCCC3)cn1C)CC2 (stereo not drawn)	-21	104	88	83
109	Cc1cc(C)c(C(=O)COC(=O)C2CSC3(C)CCC(=O)N23)cc1C (stereo not drawn)	-3	·	97	95
110	O=C(COC(=O)c1cccs1)Nc1ccccc1	0	99	93	94
111	COc1cccc(Cn2c(CNC(=O)CCc3ccccc3)nc3cccnc32)c1	·	116	104	86

Random excerpt: five entries already listed
no.	molecule	HCMV NEC inh	GIV Gai3 FP	Sa growth inh	Sa growth inh second temp
64	CN(C(=O)CSc1nnc(Cc2ccccc2)o1)C1CCCc2ccccc21 (stereo not drawn)	-33	·	104	83
45	CSc1ccc(CNC(=O)Cn2c(-c3cccs3)cc3cc(F)ccc32)cc1	·	105	116	102
17	c1ccc(C2=Nn3cnnc3SC2)cc1	-17	113	·	·
58	COC(=O)c1sc(N)c(C(=O)OC)c1COc1ccccc1C#N	-15	·	90	77
46	CC(C)(CC(=O)O)CC(=O)N1CCCN(c2nc3ccc(Cl)cc3s2)CC1	-10	113	102	81
